miR-21 FLuc: miR-21 reporter, rising signal | HeLa miR-21 FLuc reporter, luciferase, 48 h | Potency, µM (titrated, usually from 38.3 µM), for the others: top-dose reporter change, positive = more light | 340,000 tested, under 10 active | AID 2288; active = well fitted rising curve with a large enough effect; inconclusive = small, poorly fitted or top-dose-only effect; inactive = no such curve, though single readings can be large or run the other way;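 note: % of control where 0% means no effect; miR-21 action dims this reporter so a rising signal means less miR-21 action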
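HeLa miR-21-FLuc reporter line, endogenous miR-21; 2000 cells/well in DMEM/10% FBS; compound titration up to ~40uM final, 48 h, 37 degree Celsius; luciferase detection reagent, 15 min lysis, CCD luminescence.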
Rango dissoc inh: prevents RanGTP from dissociating the Rango-importin beta complex | O95149+P62826 | Biochemical FRET Rango-importin beta, RanGTP-induced dissociation | Potency, µM (highest dose often 46.1 µM), without a hit: at the highest dose activity change, negative = inhibition | actives 0.071% (n = 340,000) | AID 540253; active means falling FRET ratio curve, often poorly fitted, with flat reads before Ran was added; inconclusive means other falling curves, or compound fluorescence or quenching; inactive means flat or rising ratio curve;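 note: potency is the fitted concentration of half-maximal effect; % of control where 0% means no effect; nearly all actives have a fitted effect of over 45% in size; -100% = wells without RanGTP and RCC1; the record marks most hits as doubtful in a second field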
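Rango/importin beta premix (0.1/0.25 uM final), PBS + 1 mM DTT + 0.02% Tween-20 + 0.1% BSA; cpd 5 min RT; FRET pre-read; + RanGTP-RCC1 (0.6 uM Ran, 2 mM GTP, 0.2 uM RCC1); 45 min RT; FRET post-read, ex 430, em 486/530 nm.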
Rango-impB inh: prevents formation of the Rango-importin beta complex; Potency, µM (highest dose often 92.2 µM), without a hit: at the top dose inhibition of complex formation; Rango CFP/YFP FRET sensor + importin beta, 45 min; Q14974; actives 0.031% (n = 340,000); AID 540263; active = rising FRET ratio curve, often small or poorly fitted; inconclusive = mostly compound fluorescence or quenching in the first reads; inactive = flat curves in all reads;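 note: potency is the fitted concentration of half-maximal effect; 0% = DMSO wells and 100% = buffer wells lacking importin beta; nearly all actives have a fitted effect of over 15% in size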
Target sequence (Q14974 whole entry, looked up): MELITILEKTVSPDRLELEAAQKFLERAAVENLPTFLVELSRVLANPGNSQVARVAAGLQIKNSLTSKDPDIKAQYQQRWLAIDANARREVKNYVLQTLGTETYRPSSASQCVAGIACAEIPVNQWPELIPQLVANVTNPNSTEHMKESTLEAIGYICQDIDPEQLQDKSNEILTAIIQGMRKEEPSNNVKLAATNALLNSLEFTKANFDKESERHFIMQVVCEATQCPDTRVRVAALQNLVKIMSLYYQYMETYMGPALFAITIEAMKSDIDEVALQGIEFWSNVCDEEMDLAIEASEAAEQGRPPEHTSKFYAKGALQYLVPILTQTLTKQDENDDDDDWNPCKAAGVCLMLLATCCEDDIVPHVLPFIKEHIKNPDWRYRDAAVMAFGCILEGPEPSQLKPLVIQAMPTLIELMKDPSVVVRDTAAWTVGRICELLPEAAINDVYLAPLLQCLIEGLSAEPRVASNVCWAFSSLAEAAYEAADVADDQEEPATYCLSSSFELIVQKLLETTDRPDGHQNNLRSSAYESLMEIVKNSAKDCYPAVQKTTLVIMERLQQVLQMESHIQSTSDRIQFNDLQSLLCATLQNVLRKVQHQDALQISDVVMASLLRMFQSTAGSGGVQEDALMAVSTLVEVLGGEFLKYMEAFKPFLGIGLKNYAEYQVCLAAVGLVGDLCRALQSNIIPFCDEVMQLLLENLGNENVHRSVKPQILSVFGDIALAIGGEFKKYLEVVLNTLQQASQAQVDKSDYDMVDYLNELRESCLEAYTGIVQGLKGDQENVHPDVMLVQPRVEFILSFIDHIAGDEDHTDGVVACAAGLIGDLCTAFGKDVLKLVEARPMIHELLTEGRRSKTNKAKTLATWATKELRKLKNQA
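FRET biosensor Rango (snurportin 1 IBB between N-terminal EYFP and C-terminal Cerulean), 50 nM in PBS/1 mM DTT/0.02% Tween-20/0.1% BSA, preincubated 5 min RT with compound; 0.125 microM importin beta added, 45 min RT, CFP/YFP FRET ratio read.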
GLA inh pH 4.5: blocks human alpha-galactosidase A at pH 4.5 | AID 1467 | 230,000 tested, under 10 active | purified enzyme, 4-MU-alpha-Gal fluorescence, pH 4.5 | activity change, negative = inhibition, % at 105 µM; inconclusive = small, poorly fitted or top-dose-only inhibition, or a rising curve; inactive = flat fitted curve, though single readings scatter; no compound was filed as active;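 note: 0% = full activity with enzyme and -100% = basal without enzyme; dose as in the result columns while the protocol names 77 µM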
* marks the source's active call; other numbers are inactive results; ? = inconclusive; . = no result given; & = joins results of further samples; [ ] = another dose, or the depositor's remark.

Sequence of screens: miR-21 FLuc | Rango dissoc inh | Rango-impB inh | GLA inh pH 4.5
CCCn1c(CNC(=O)Cc2ccccc2)nc2ccccc21
    -8.8% | ? | 0.5% | -0.8
CCCC(=O)Nc1ccc(C(=O)NNC(=O)COc2ccc(Br)c(C)c2)cc1
    0.1% | 19.9% | 4.3% | 4.2
COc1ccc(-c2nnc(Nc3ccc(CC(N)=O)cc3)c3ccccc23)cc1
    0.3% | -14.2% | 0.3% | -5.7
Cc1ccccc1Cc1c(C)nc2nc(SCC(=O)NCc3ccco3)nn2c1C
    6.6% | -4.6% | 8.1% | -11.1
CC1=NN(C(=O)c2ccccc2C)C(O)(c2ccc(Cl)cc2)C1 (stereo not given)
    -0.2% | -4.0% | -0.8% | .
CC(C1CC1)N(Cc1ccccc1)C(=S)Nc1cccc(C(F)(F)F)c1 (stereo not given)
    10.1% | 4.2% | -3.7% | -3.0
COc1ccc(Oc2ccccc2/C=N/O)cc1
    22.0% | 5.7% | -0.1% | -1.2
O=C(CNC(=O)c1cccc(F)c1)N/N=C/C=C/c1ccccc1
    -5.3% | 7.0% | -1.0% | 2.8[21.1 µM]
Cc1cccc(OCC(=O)NCCCNC(=O)c2ccc(C)nc2)c1
    -4.7% | 3.7% | 0.9% | .
Cc1ccc(-c2cc(-c3ccc(F)cc3)nc(N)c2C#N)o1
    -3.4% | ? | ? | 18.6
CCCCOC(=O)NC1(C)CCS(=O)(=O)C1 (stereo not given)
    -0.7% | 0.8% | 2.6% | -3.7
Nc1ccc(C(=O)Nc2ccco2)cc1
    -32.0% | 0.3% | 3.3% | 5.6
COc1ccc(C(=O)CSc2nnc(-c3ccccn3)n2Cc2ccco2)cc1
    3.2% | 7.4% | -0.4% | -1.2
Nc1nc(NCC(=O)O)nc(NC2CCCCC2)c1[N+](=O)[O-]
    -10.5% | 0.1% | -0.5% | .
COc1ccc(-n2c(=O)c3ccccc3n(CC(=O)NC3CCCC3)c2=O)c(OC)c1
    0.6% | ? | 1.3% | -2.4
CN(C)C(=O)CCc1ccc2c3c([nH]c2c1)[C@]1(C)[C@@H](C(=O)N2CCCCC2)C[C@H](CC(=O)NCCCn2ccnc2)C(=O)N1CC3
    . | -17.6% | 0.3% | .
Cc1cc(OCC(=O)NCC(O)c2ccccc2)c2c(C)c(C)c(=O)oc2c1 (stereo not given)
    -7.8% | 7.8% | -1.0% | .
Cn1c(=O)c2[nH]c(Cc3ccsc3)nc2n(C)c1=O
    . | ? | ? | .
O=C(CCCCCn1c(=O)[nH]c2ccccc2c1=O)NCCCN1CCN(c2ccccc2F)CC1
    24.2% | -9.1% | 1.9% | 3.8
CCOc1ccc(/C=C(\C#N)C(=O)Nc2ccccn2)cc1
    -0.6% | ? | ? | .
CCOc1ccc(N2C(=O)c3cccnc3C2Nc2ccc(OC)cc2)cc1 (stereo not given)
    -7.2% | -2.0% | 2.8% | -7.6
O=C(COc1nsnc1N1CCOCC1)Nc1ccc([N+](=O)[O-])cc1
    -10.1% | 2.6% | -0.3% | .
CN1C(=O)NC(c2ccc(O)cc2)C2=C1CN(c1ccccc1)C2=O (stereo not given)
    -1.9% | -8.4% | -2.3% | -0.2
O=C(CSc1nnc(-c2ccccn2)n1Cc1ccco1)c1ccc(-c2ccccc2)cc1
    -1.6% | 11.5% | 2.5% | 2.3
CCC(Oc1cccc(Cl)c1)C(=O)N1CCCN(C)CC1 (stereo not given)
    0.4% | 12.0% | 0.3% | .
O=C(CC1S/C(=N/N=C2CCCCCC2)NC1=O)Nc1ccc(Br)cc1F (stereo not given)
    -3.4% | 5.9% | ? | .
C/C(=N\NC(=O)C1(C)CC1(Br)Br)c1ccc(NC(=O)c2ccc(C)o2)cc1 (stereo not given)
    -17.3% | 1.0% | -0.3% | -7.1
CCCCc1c(O)nc(SCC(=O)c2ccccc2)n(-c2ccccc2)c1=O
    -11.1% | 5.2% | -1.6% | -11.7
CC1CCCC(C)N1/N=C/c1cc(Br)c(O)c(Br)c1 (stereo not given)
    -3.7% | . | . | 7.9
O=c1c2cn[nH]c2nc(SCc2ccccc2F)n1-c1ccc(Br)cc1
    -6.6% | -0.4% | 3.5% | -14.0

Part of the list above, reduced to Rango dissoc inh, Rango-impB inh and miR-21 FLuc.
| canonical_smiles | Rango dissoc inh | Rango-impB inh | miR-21 FLuc |
| --- | --- | --- | --- |
| CCC(Oc1cccc(Cl)c1)C(=O)N1CCCN(C)CC1 (stereo not given) | 12.0% | 0.3% | 0.4% |
| O=C(CC1S/C(=N/N=C2CCCCCC2)NC1=O)Nc1ccc(Br)cc1F (stereo not given) | 5.9% | ? | -3.4% |

Further records follow.
Sequence of screens: miR-21 FLuc | Rango dissoc inh | Rango-impB inh | GLA inh pH 4.5
C/C(=C\C(=O)c1ccc(C)o1)Nc1ccc2c(c1)OCO2
    -32.6% | -17.6% | -2.1% | -4.9
CCOC(=O)/C(=C\c1ccc([N+](=O)[O-])cc1)C(=O)c1cc(C(C)=O)c(Nc2ccccc2)s1
    -0.5% | -2.4% | -1.1% | 7.1
Cc1ccc(CN2C(=O)N/C(=C\c3ccc(-c4ccc(C(=O)O)cc4C)o3)C2=O)cc1
    -0.1% | ? | ? | -1.5
CC(=O)c1nn(-c2cccc(Br)c2)cc1C(=O)c1ccc(Br)cc1
    0.4% | 0.5% | -0.6% | 1.1
C=CCN1C(=O)CSc2ccc(C(=O)NCCC3=CCCCC3)cc21
    19.1% | 15.4% | -3.2% | 2.0
O=C(COC(=O)CCc1ccccc1)NC(c1ccccc1)c1ccccc1
    0.4% | 5.5% | 3.4% | -10.1
CC(C)(C)NC(=O)C(c1ccncc1)N(C(=O)Cn1nnc(-c2ccc(F)cc2)n1)c1cccc(F)c1 (stereo not given)
    -22.7% | -7.8% | -0.1% | 7.1
CCc1noc(C)c1C(=O)OCC(=O)NCc1ccc(Cl)cc1
    . | -0.9% | -1.7% | .
c1cn2cc(CN3CCOCC3)nc2s1
    -4.0% | 2.8% | -1.6% | 2.7
Cc1ccc(C(=O)N/C(=C/c2ccco2)C(=O)NCCCn2ccnc2)cc1
    -3.3% | -16.8% | -0.8% | 2.7
Cc1ccc(N/C=C/C(=O)c2ccc(C)cc2)cc1
    -65.8% | -2.7% | -1.9% | -2.4
COCC(C)n1c(SCC(=O)c2cc(C)n(C)c2C)nc2ccccc2c1=O (stereo not given)
    -0.2% | 1.1% | 5.3% | -9.6
CS(=O)(=O)N(CC(=O)Nc1c(F)cccc1F)c1cccc([N+](=O)[O-])c1
    -1.9% | -7.5% | 0.6% | 2.2
Cc1cccc([C@@H]2[C@@H]3C(=O)N(Cc4ccccc4)C(=O)[C@@H]3[C@]3(CC(C)C)C(=O)N(c4cccc(F)c4)C(=O)N23)c1
    . | -7.7% | 0.9% | .
Fc1cccc(Cl)c1CSc1nnc(-c2ccncc2)o1
    -67.3% | -9.2% | 1.6% | .
CCCSc1nnc2[nH]c(=O)cc(N)n12
    -9.9% | 4.6% | -0.3% | -1.4
CCOc1cc(/C=C2/NC(=O)N(Cc3ccccc3F)C2=O)ccc1O
    -2.3% | -23.1% | 1.2% | -7.9
COc1ccccc1N1C(=O)CC(N2CCN(c3ccc(Cl)cc3)CC2)C1=O (stereo not given)
    -5.4% | 3.2% | -3.7% | .
Cc1[nH]nc2c1[C@@H](c1ccccc1[N+](=O)[O-])C(C#N)=C(N)O2
    2.4% | ? | ? | .
COc1ccc(CCNc2oc(Cc3ccccc3)nc2C#N)cc1OC
    0.8% | -0.3% | -0.3% | 4.1
CCS(=O)(=O)c1ccc2oc(SCC(=O)NC(C)C3CC4CCC3C4)nc2c1 (stereo not given)
    4.8% | 1.8% | -4.6% | -2.1
Cn1nc2c3ccccc3n(Cc3ccccc3)c2nc1=S
    -57.4% | ? | 0.6% | 5.2
COc1ccc(N2CCN(C(=O)c3ccc(C)cc3)CC2)c([N+](=O)[O-])c1
    -8.6% | -18.2% | 0.0% | -5.4
CCn1c(O)c(N=NC(=O)CNC(=O)Cc2ccccc2)c2ccccc21
    -8.6% | 22.0% | 0.0% | .
CC/C(=N\NC(=O)c1ccc(N2CCCC2=O)cc1)c1ccccc1
    -2.8% | 10.1% | -3.4% | .
Nc1nc(-c2ccc(NC(=O)c3ccco3)cc2)cs1
    -0.3% | 0.2% | 3.6% | .
CCCCCn1c(=O)[nH]c2cc(C(=O)NCCN3CCC(C)CC3)ccc2c1=O
    8.3% | 4.1% | -0.2% | .
N/C(=N\OCC(=O)Nc1ccccc1)c1nonc1N
    -21.1% | -6.2% | 0.3% | -0.7
CCc1ccc(S(=O)(=O)Nc2c(C)n(C)n(-c3ccccc3)c2=O)cc1
    0.7% | 7.9% | -0.1% | .
Cc1ccc(C)c2sc(N)nc12
    -5.7% | -11.9% | 1.1% | 0.0
CN(C)CCCNCCCNC(=O)c1ccccn1
    0.5% | -9.6% | -0.7% | 0.9
COc1ccc(OC)c2c1sc(=NC(=O)C1COc3ccccc3O1)n2C (stereo not given)
    -1.5% | -2.0% | -1.2% | 3.8
CCCSc1nc2sc3c(c2c(=O)n1CC)CC(C)(C)OC3
    -2.0% | -5.6% | 1.6% | 2.4
O=C1c2cccc3cccc(c23)C(=O)N1c1nccs1
    -4.6% | -16.9% | 4.2% | -1.2
Oc1[nH]c2ccccc2c1N=Nc1nc(Nc2ccccc2)nc(N2CCOCC2)n1
    7.7% | -3.7% | 10.0% | 7.0
CCOC(=O)c1ccc(N=c2sc(C(=O)OC)cc(=O)n2-c2ccc(C(=O)OCC)cc2)cc1
    16.2% | 4.6% | 1.9% | -3.5
O=C(CCC(=O)OCC(=O)c1cccc([N+](=O)[O-])c1)NC1CCCCC1
    -6.2% | 22.4% | -3.0% | -7.3
CCOC(=O)N1CCN(C(=O)c2cc(OC)cc(OC)c2)CC1
    -4.4% | 0.7% | -1.3% | 2.8
COC(=O)c1c(-c2ccccc2OC)sc2ccc(OC)cc12
    . | -0.1% | 0.0% | .
O=C(CCN1CCN(CCO)CC1)Nc1ccc(Br)cc1
    1.7%&-15.4% | -4.1% | 1.0% | -12.0
CC(C)CC1(C(=O)NCCN2CCOCC2)C=CCN1C(=O)c1ccccc1 (stereo not given)
    -6.7% | 0.0% | 1.7% | -0.8&3.9
C=CCSc1nc2sc(-c3ccccc3)cc2c(=O)n1N
    -7.4% | -8.3% | -0.9% | 8.6
CN(C(=O)c1cccc(NC(=O)Cc2ccc(NC(=O)C3CCN(S(=O)(=O)c4cccc([N+](=O)[O-])c4)CC3)cc2)c1)C1CC1
    . | -3.8% | -1.4% | .
Cc1c(NC(=O)Nc2cccc([N+](=O)[O-])c2)c(=O)n(-c2ccccc2)n1C
    1.3% | 15.6% | 0.1% | .
CS(=O)(=O)Nc1ccc(C(=O)NCc2ccco2)cc1
    -10.3% | 1.4% | -0.9% | 5.5
CC(NC(=O)c1ccc2c(=O)n3c(nc2c1)CCCCC3)c1ccccc1 (stereo not given)
    . | 17.8% | -3.3% | .
N#CCCN(Cc1cccnc1)C(=S)NC(=O)c1ccccc1
    . | -8.5% | -1.5% | .
O=C(Cc1cccs1)N1CCN=C1SCc1ccccc1Cl
    -6.5% | -5.6% | -4.1% | 0.4
Cc1ccc(C)c(OCCn2ccnc2)c1
    -6.7% | -8.5% | -0.9% | .
O=C(CCSCCc1ccccn1)Nc1nccs1
    3.1% | 11.9% | -1.7% | -9.5
Fc1ccc(Cn2cnc3ccccc32)cc1
    -3.8% | -3.4% | 4.9% | 1.5
COC(=O)c1ccc(S(=O)(=O)NCc2ccc(S(N)(=O)=O)cc2)n1C
    0.6% | 0.5% | 2.4% | -3.3
CCCc1cc(=O)n2[nH]c(NCc3ccc(OC)c(OC)c3)nc2n1
    -3.0% | 0.9% | 2.6% | ?

The list is partial; count on the stated rates, not on these rows.
